RE007 growth inh = qHTS Assay for Inhibitors of the HIV-1 protein Vpr | AID 651644, 2012 | Potency, µM (top dose mostly 92.2 µM), for inactives: top-dose activity change, negative = less growth | S. pombe RE007 Vpr strain, BacTiter-Glo ATP luminescence, 24 h; control for the full effect not named in the record | hit rate 0.21% among 360,000; active = well fitted falling curve with a large enough effect; inconclusive = small, poorly fitted or top-dose-only effect; inactive = no such curve, though single readings can be large or run the other way;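 further: on the % scale 0 is the no-effect control and ±100 the full control effect; nearly all actives have a fitted effect of over 50% in size; the assay follows cell death caused by Vpr and the record does not say whether a fall means rescue or toxicity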
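Fission yeast RE007 carrying one integrated HIV-1 vpr copy, seeded at OD 0.01 in PMG+AL medium with 23 nL pinned compound. Grown 24 h at 30 degrees; viability read by BacTiter-Glo luminescence after 5 min.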
2A StopGo = High Throughput Screening for Foot and Mouth Disease Virus Antivirals. human cells with a luciferase reporter of 2A StopGo recoding; control for the full effect not named in the record. Potency, µM (top dose mostly 57.9 µM), for the others: top-dose signal change, negative = less light. hit rate 1.2% among 410,000. AID 1159524, 2015; active = well fitted falling curve with a large enough effect; inconclusive = small, poorly fitted or top-dose-only effect; inactive = no such curve, though single readings can be large or run the other way; tested in HEK293T cells; further: on the % scale 0 is the no-effect control and ±100 the full control effect; nearly all actives have a fitted effect of over 45% in size; luciferase light after 4 h
SARS PLP yeast = qHTS of Yeast-based Assay for SARS-CoV PLP; S. cerevisiae expressing SARS-CoV PLpro, growth rescue; control for the full effect not named in the record; Potency, µM (series often up to 32.9 µM), for inactives: at the highest dose activity, positive = growth rescue; hit rate 0.19% among 330,000; AID 485353, 2010; active means well fitted rising curve with a large enough effect; inconclusive means small, poorly fitted or top-dose-only effect; inactive means no such curve, though single readings can be large or run the other way; further: 0% is about no effect; nearly all actives have a fitted effect of over 55% in size; growth read by luminescence after 48 h
The depositor's hits bear a star; ? = inconclusive; [ ] = another dose, or the depositor's remark. Potency means the concentration at half of the fitted maximal effect. Not all compounds are listed; the hit share may differ from the screen's.

SMILES	RE007 growth inh	2A StopGo	SARS PLP yeast
COc1ccc(S(=O)(=O)N(C)C[C@H]2Oc3c(NC(=O)C4CCCCC4)cccc3C(=O)N([C@H](C)CO)C[C@@H]2C)cc1	-6%	25%	-4%
CCN(C(=O)CCN1C(=O)c2ccccc2S1(=O)=O)c1ccccc1	7%	-14%	-3%
COc1ccc2[nH]c(C)c(CCNC(=S)Nc3ccc(C)cc3)c2c1	-9%	40%[activator]	18%
Cc1ccccc1NC(=O)COC(=O)CCc1nc2ccccc2c(=O)[nH]1	7%	-9%	0%
CCN(CC)C(=O)c1[nH]cnc1C(=O)NCc1ccc(CNC(=O)OC(C)(C)C)cc1	27%	-19%	3%
Cc1cccc(N2CCN(C(=O)C3(S(=O)(=O)c4ccc(Cl)cc4)CC3)CC2)c1C	1%	-15%	1%
CC[C@]12c3[nH]c4ccccc4c3CCN1C(=O)C(CC(=O)NCCCN(C)C)C[C@@H]2C(=O)N1CCN(C(=O)C2CC2)CC1 (some centres not stated)	8%	-11%	0%
Oc1ccc(C[C@@H]2CNCCN2CCc2cccc3ccccc23)cc1	2%	-2%	-2%
O=C(NC(=O)c1ccccc1)C1=C(N2CCCC2)COC1=O	-4%	18%	-6%
COCCN(Cc1ccccc1)C(=O)C1CCN(C(=O)Nc2ccccc2)CC1	6%	3%	-2%
O=C(CCc1nc2ccccc2c(=O)[nH]1)Nc1cc(Cl)ccc1N1CCCCC1	-17%	-16%	2%[6.58 µM]
O=C(COC(=O)CSc1ccc(Cl)cc1)Nc1ccccc1	-8%	-17%	7%
Nc1cc(C(F)(F)F)ccc1Nc1ccccc1	0%	24%	2%
O=C(O)CN1C(=O)/C(=C/C=C/c2ccccc2)SC1=S	6%	35%[activator]	6%
CN(C)c1cc[n+](/C(C(=S)Nc2ccc(SC(F)F)cc2)=C(/[O-])c2ccccc2)cc1	1%	-21%	-6%
C[C@H](CO)N1C[C@H](C)[C@@H](CN(C)C(=O)Nc2ccc(C(F)(F)F)cc2)Oc2ccc(NS(=O)(=O)c3cn(C)cn3)cc2C1=O	22%	-10%	-3%
CC1(C)Oc2ccc(C(=O)NN)cc2NC1=O	5%	3%	2%
CCCn1c(N)c(N(CCOC)C(=O)CSc2cc(C)c3cccc(C)c3n2)c(=O)[nH]c1=O	-11%	-6%	7%
CC(c1nnc(SCC(=O)N(C)C2CCS(=O)(=O)C2)n1-c1ccccc1)N(C)C (configuration not stated)	1%	-8%	-12%
COc1cc2cnc(-c3ccccc3)c(-c3ccc([N+](=O)[O-])cc3)c2cc1OC	-11%	5%	1%
COC(=O)C1=CO[C@@H](O[C@@H]2O[C@H](CO)[C@@H](O)[C@H](O)[C@H]2O)C2C1CC(O)O[C@H]2C (some centres not stated)	11%	-12%	0%
Cc1sc2ncnc(N3CCN(S(=O)(=O)c4ccc(C(C)(C)C)cc4)CC3)c2c1C	5%	?	-4%
CN(C(=O)c1ccc(NC(=O)Cc2cccc(NC(=O)C3CCN(C(=O)CCc4ccccc4)CC3)c2)cc1)C1CCCC1	-26%	-20%	1%
CCN(CC)C(=O)c1nc[nH]c1C(=O)N1CCC(C)CC1	1%	-21%	1%
O=C(Nc1cccc(S(=O)(=O)N2CCOCC2)c1)c1ccccc1[N+](=O)[O-]	-12%	2%	-6%
CC1(C)Cc2cccc(OCC(=O)NCc3ccccc3F)c2O1	4%	2%	0%
CN(C)S(=O)(=O)c1cc(C(=O)Nc2ccccc2C(=O)NC2CC2)ccc1Cl	-16%	1%	4%
CCc1cc(Cn2nc(-c3ccccc3)cc2C(=O)NCc2cccc(Br)c2)on1	7%	-4%	-33%
O=C(COc1ccc(Cl)cc1Br)Nc1cccc(S(=O)(=O)N2CCCC2)c1	-7%	29%	-3%
Cc1cccc(C(=O)OCC(=O)NC2CCCCCCC2)c1	7%	17%	5%
CCOc1ccccc1OCCCC(=O)N1CCN(S(=O)(=O)c2ccc(C)cc2C)CC1	6%	?	-5%
COc1ccc(S(=O)(=O)N2CCOCC2)cc1NC(=O)Cc1c(F)cccc1Cl	-13%	-3%	-2%
CCN1C(=O)[C@H]2[C@@H](c3ccc(C)cc3)N3C(=O)N(c4ccc(C)cc4)C(=O)[C@@]3(CC)[C@H]2C1=O	9%	15%	3%
COC(=O)c1sc2nc(C)nc(SCC(=O)C(C)(C)C)c2c1C	13%	-3%	-8%
CCC(C(=O)OC(C)C)c1ccc2ccccc2c1 (configuration not stated)	9%	-7%	4%
CCCN(CC(=O)Nc1cc(Cl)ccc1Cl)C(=O)c1ccc2n[nH]nc2c1	0%	-7%	-10%
CCCS(=O)(=O)Nc1cccc(-c2ccc3nnc(C)n3n2)c1	-11%	17%	1%
Cc1ccc(C(=O)OCC(=O)N(C)C2CCS(=O)(=O)C2)cc1[N+](=O)[O-] (configuration not stated)	-3%	7%	2%
C=CC[C@@H](Cc1ccc(F)cc1)C(=O)OC[C@H]1CCCN1C(=O)[C@@H](CC=C)CC(=O)N[C@H](CO)Cc1ccccc1	1%	?	3%
CC1CCN(C(=O)COC(=O)C(C)N2C(=O)c3ccccc3C2=O)CC1 (configuration not stated)	3%	-24%	-2%
COc1cc2cc(CCCOC(=O)CCCC(=O)O)oc(=O)c2cc1OC	8%	-7%	-7%
O=C(NCCc1ccccc1)C1CCN(C(=O)c2ccc([N+](=O)[O-])cc2)CC1	5%	-2%	0%
COc1ccccc1NC(=O)c1ccc(S(=O)(=O)N(C)c2ccccc2OC)cc1	8%	?	-2%
COc1ccccc1Nc1nnc(SCC(=O)NC2CCCC2)s1	-1%	4%	-1%
CC(C)N(C(=O)[C@H]1C[C@H](CC(=O)NCCC2=CCCCC2)C(=O)N2CCc3c([nH]c4cc(-c5ccco5)ccc34)[C@]12C)C(C)C	3%	-28%	-12%
CCCn1c(SCC(=O)NC(=O)NCc2ccccc2)n[nH]c1=O	-7%	-4%	1%
Cc1ccccc1OCC(=O)OCC(=O)NCc1ccccc1Cl	-3%	-5%	15%
COc1cc(NCC(=O)Nc2cccc(S(=O)(=O)N3CCCCC3)c2)cc(OC)c1OC	4%	-7%	-2%
Cc1ccc(S(=O)(=O)N[C@H](C(=O)NC2CCC(C)CC2)C(C)C)cc1 (some centres not stated)	-10%	-8%	1%
O=C(Nc1ccc2c(c1)CCC2)Nc1ccc2c(c1)OCO2	-4%	0%	-1%
O=C(NNC1=NS(=O)(=O)c2ccccc21)c1ccc(Cl)cc1	7%	24%	0%
CCCNC(=O)C1CC2Cn3c(nc4ccccc43)C2N1C (configuration not stated)	3%	-8%	-6%
CC(C(=O)Nc1ccc(S(=O)(=O)N2CCCC2)cc1)N1CCN(c2ccccc2O)CC1 (configuration not stated)	-2%	?	-3%
Cc1ccc(-n2nnnc2CNC(=O)C2CC(=O)N(c3ccc(F)cc3)C2)cc1C (configuration not stated)	-2%	3%	-5%
Cc1occc1C(=O)N1CCN(S(=O)(=O)c2ccc(F)cc2)CC1	8%	-14%	-1%
CCc1cc2ccc(C)cc2nc1SCC(=O)Nc1c[nH]c(=O)[nH]c1=O	12%	-16%	0%
O=C1CN(C(=O)COC(=O)CCC(=O)c2ccc(F)cc2)c2ccccc2N1	1%	2%	0%
Cc1cccc(N(Cc2ccccc2)C(=O)CN2C(=O)NC3(CCCC3)C2=O)c1	2%	-9%	-2%
C[C@H]1CN=C(N(C)C)N1CCc1ccc(F)cc1	-9%	-10%	0%
O=C(COC(=O)c1ccc(Cl)c(S(=O)(=O)N2CCCCC2)c1)NCC1CCCCC1	0%	-16%	-2%

Further records follow:
SMILES	RE007 growth inh	2A StopGo	SARS PLP yeast
O=[N+]([O-])c1ccc2nc(-c3ccccc3)oc2c1	-8%	100%[activator]	-6%
CC[C@@H](C)[C@@H]1CN([C@@H](C)CN2CCC[C@H]2CN2C(N)=NC[C@H]2C(C)C)C(=N)N1CCc1ccc(Cl)c(Cl)c1	-8%	-10%	-1%
Cc1cc(C)cc(NC2=NCCCS2)c1	-2%	0%	-6%
CC[C@]12c3[nH]c4cc(-c5ccco5)ccc4c3CCN1C(=O)[C@@H](CC(=O)NCCC1=CCCCC1)C[C@@H]2C(=O)N1CCN(C(=O)C2CC2)CC1	-1%	?	10%
CC(C)(C)OC(=O)C[C@@H]1C/C=C\C[C@@H](CC(=O)NCCO)C(=O)N2CCC[C@H]2COC1=O	-16%	5%	-2%
CCC1CCc2sc(C(=O)NCC(c3ccccc3OC)N3CCCC3)cc2C1 (configuration not stated)	-2%	?	0%
C=CCCN(Cc1ccccc1)S(=O)(=O)c1cc(Br)ccc1Br	13%	-16%	5%
O=C(COC(=O)/C=C/c1ccc2c(c1)OCO2)NCc1ccccc1	-12%	-11%	-5%
COc1ccc([C@H]2C(C(=O)O)=C[C@@H](C(C)(C)C)N2S(=O)(=O)c2ccccc2)cc1	6%	-1%	1%
CCOC(=O)c1ccc(-[n+]2c(-c3ccccc3)cc(-c3ccccc3)cc2-c2ccccc2)cc1	-15%	-20%	-1%
O=C(COC(=O)Cn1cnc2ccccc21)NCc1ccc(F)cc1	-7%	-3%	-1%
CC(C)C[C@H]1CN=C(Nc2ccccc2)N1CCC(C)c1ccccc1 (some centres not stated)	?	?	7%
O=[N+]([O-])c1ccc(C[n+]2c(-c3ccccc3)cc(-c3ccccc3)cc2-c2ccccc2)cc1	-14%	-23%	1%
CC(C)(C)NS(=O)(=O)c1ccc(/C=C/C(=O)O)cc1	-2%	-6%	3%
CC(C)C(NC(=O)c1ccc(F)cc1)C(=O)N1CCN(C(=O)c2ccco2)CC1 (configuration not stated)	-1%	-10%	-9%[6.58 µM]
O=C(COc1ccc(F)cc1)NCCNC(=O)COc1ccc(F)cc1	-3%	2%	2%
Cc1cc(=O)c(C(=O)Nc2cccc(N3CCCC3=O)c2)nn1-c1ccccc1F	0%	-17%	1%
COc1cc(C(=O)COC(=O)c2c(C)noc2C)cc(OC)c1OC	9%	-2%	9%
O=C(COc1ccc(Cl)cc1[N+](=O)[O-])N/N=C/c1cccs1	-1%	13%	4%
COc1ccc(NC(=S)N2CCCCCC2)cc1OC	5%	10%	0%
CCCCC1(C)NC(=O)N(CC(=O)N2CCc3ccccc32)C1=O (configuration not stated)	2%	-12%	-1%
O=C1C=C(c2ccc(-c3ccccc3)c(F)c2)C[C@@H](c2ccc(Cl)cc2)C1	8%	7%	0%
COC(=O)C1=C(c2ccc(F)cc2F)C[C@@H]2CC[C@H]1N2C(=O)N1CCC(O)CC1	-7%	-9%	3%
CCN1CCN(C(c2ccccc2)c2nnnn2Cc2ccc(OC)cc2)CC1 (configuration not stated)	6%	-14%	-1%
Cc1ccnc2nc(C(=O)OCC(=O)N(CC(C)C)C3CCS(=O)(=O)C3)nn12 (configuration not stated)	0%	-11%	6%
COc1ccc(NC(=O)COC(=O)CN2C(=O)C3CCCCC3C2=O)cc1OC (configuration not stated)	-7%	-25%	6%

Of the compounds above, these have an NH in an aromatic ring.
SMILES	RE007 growth inh	2A StopGo	SARS PLP yeast
COc1ccc2[nH]c(C)c(CCNC(=S)Nc3ccc(C)cc3)c2c1	-9%	40%[activator]	18%
Cc1ccccc1NC(=O)COC(=O)CCc1nc2ccccc2c(=O)[nH]1	7%	-9%	0%
CCN(CC)C(=O)c1[nH]cnc1C(=O)NCc1ccc(CNC(=O)OC(C)(C)C)cc1	27%	-19%	3%
CC[C@]12c3[nH]c4ccccc4c3CCN1C(=O)C(CC(=O)NCCCN(C)C)C[C@@H]2C(=O)N1CCN(C(=O)C2CC2)CC1 (some centres not stated)	8%	-11%	0%
O=C(CCc1nc2ccccc2c(=O)[nH]1)Nc1cc(Cl)ccc1N1CCCCC1	-17%	-16%	2%[6.58 µM]
CCCn1c(N)c(N(CCOC)C(=O)CSc2cc(C)c3cccc(C)c3n2)c(=O)[nH]c1=O	-11%	-6%	7%
CCN(CC)C(=O)c1nc[nH]c1C(=O)N1CCC(C)CC1	1%	-21%	1%
CCCN(CC(=O)Nc1cc(Cl)ccc1Cl)C(=O)c1ccc2n[nH]nc2c1	0%	-7%	-10%
CC(C)N(C(=O)[C@H]1C[C@H](CC(=O)NCCC2=CCCCC2)C(=O)N2CCc3c([nH]c4cc(-c5ccco5)ccc34)[C@]12C)C(C)C	3%	-28%	-12%
CCCn1c(SCC(=O)NC(=O)NCc2ccccc2)n[nH]c1=O	-7%	-4%	1%
CCc1cc2ccc(C)cc2nc1SCC(=O)Nc1c[nH]c(=O)[nH]c1=O	12%	-16%	0%
CC[C@]12c3[nH]c4cc(-c5ccco5)ccc4c3CCN1C(=O)[C@@H](CC(=O)NCCC1=CCCCC1)C[C@@H]2C(=O)N1CCN(C(=O)C2CC2)CC1	-1%	?	10%

Compound activity (PubChem BioAssay)
